# High-throughput results as filed in PubChem.
# MLL AF4-AF9 inh – blocks AF4 peptide binding to human AF9 | AlphaScreen, biotin-AF4 peptide binding to FLAG-AF9 | inhibition, % at 10 µM | P42568 | actives 0.47% (n = 350,000) | AID 651704;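 active = every replicate reaching a set inhibition limit, whatever the replicate mean, cut at about 25% in these data; inconclusive = mean inhibition reaches that limit but some replicates miss it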;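 also: 0% = plate neutral control median and 100% = total signal loss; the record names both 10 and 1 µM as test concentration; the first replicate is given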
# UCH37 inh – blocks the human deubiquitinase UCH37. Q9Y5K5. purified proteasome/UCH37, Ub-AMC cleavage fluorescence. inhibition, % (concentration not given with the values). actives 0.33% (n = 330,000);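 active = mean of two replicates above 20%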;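 also: 0% = compound-free wells with enzyme and 100% = wells lacking proteasome; stock transfer was 100 nL into about 20 µL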
# Target sequence (Q9Y5K5 whole entry, looked up): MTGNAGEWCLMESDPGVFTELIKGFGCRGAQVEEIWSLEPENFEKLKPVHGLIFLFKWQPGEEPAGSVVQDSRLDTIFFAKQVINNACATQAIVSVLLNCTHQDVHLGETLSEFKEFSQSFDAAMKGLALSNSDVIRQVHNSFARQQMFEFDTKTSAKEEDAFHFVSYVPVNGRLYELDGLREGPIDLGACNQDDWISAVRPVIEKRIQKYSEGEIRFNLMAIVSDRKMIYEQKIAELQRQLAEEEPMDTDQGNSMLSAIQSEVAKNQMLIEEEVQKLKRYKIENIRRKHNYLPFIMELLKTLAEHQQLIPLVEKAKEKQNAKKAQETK
#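 assay system = human UCH37 enzyme supplied as purified proteasome complex | amount = proteasome at 0.15 nM in the dispensed enzyme solution | schedule = 30 min compound-proteasome preincubation then 25 min substrate reaction, room temperature | measured by = fluorescence, ex 355 nm, em 460 nm | benchmarks = no-proteasome wells (full inhibition) and compound-free wells (no inhibition)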
# Vif A3G – HIV-1 Vif–A3G interaction blockers – biochemical, TR-FRET, GST-Vif 1-94, biotin-A3G peptide, dose response retest, primary screen (AID 1117319). TR-FRET GST-Vif / biotin-A3G peptide binding; higher % means a stronger effect; test concentration not given here; strong numbers were not always called active. inhibition, %; hits with a dose series show IC50 in µM. actives 0.57% (n = 260,000);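 active = above the screen mean plus three standard deviations and confirmed in dose response; inconclusive = results disagree or hit not tested in dose response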;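 also: Vif residues 1-94 fused to GST binding biotinylated APOBEC3G peptide 110-148; 0% = full assay without inhibitor and 100% = GST in place of GST-Vif; retest series ran down from 100 µM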
# HNF4A DNA FP – change in binding of human HNF4 alpha to DNA | activity change, % at 10 µM | P41235 | HNF4a-FITC DNA binding, fluorescence polarization, 1 h | actives 0.3% (n = 360,000); in the data active = activity change above about 30%, passing the limit was not always enough;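 also: controls were the assay level and a saturating level of protein; the project sought stronger binding though the title names inhibitors; some compounds called inactive have numbers as strong as hits; positive values seem to mean higher polarization but the record does not say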
# Target sequence (P41235 whole entry, looked up): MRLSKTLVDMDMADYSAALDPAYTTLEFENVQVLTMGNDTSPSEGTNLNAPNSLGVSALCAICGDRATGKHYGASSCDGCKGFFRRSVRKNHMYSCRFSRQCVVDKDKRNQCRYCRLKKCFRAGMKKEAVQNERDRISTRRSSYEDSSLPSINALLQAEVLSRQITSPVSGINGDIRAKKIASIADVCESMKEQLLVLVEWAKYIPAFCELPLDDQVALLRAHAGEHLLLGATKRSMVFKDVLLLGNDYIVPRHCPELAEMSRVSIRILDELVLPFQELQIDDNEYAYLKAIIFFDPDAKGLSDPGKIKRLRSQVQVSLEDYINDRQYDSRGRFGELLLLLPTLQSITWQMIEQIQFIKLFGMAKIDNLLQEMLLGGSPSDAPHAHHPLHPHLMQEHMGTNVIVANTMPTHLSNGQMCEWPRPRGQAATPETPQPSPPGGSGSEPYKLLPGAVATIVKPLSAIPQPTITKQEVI
# Ecoli growth – inhibitors of Escherichia coli growth. OD600, 23 h; hits give low values. OD600 absorbance (no concentration beside the values). actives 0.21% (n = 330,000);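 active = OD600 absorbance below the run mean of sample wells minus 3.6 SD, in any replicate, cut at about 0.56 in these data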;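 also: stock transfer was 300 nL into about 60 µL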
# FGF22 binding – binders of recombinant human FGF22 by thermal shift | actives 1.5% (n = 340,000) | calls only at 9.99 µM | SYPRO orange fluorescence; percent of sucrose octasulfate shift, DMSO zero;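 active = melting point raised past a set limit in the mean and every replicate; inconclusive = no clear call; three in four hits are not shown here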
# Target sequence (Q9HCT0 whole entry, looked up): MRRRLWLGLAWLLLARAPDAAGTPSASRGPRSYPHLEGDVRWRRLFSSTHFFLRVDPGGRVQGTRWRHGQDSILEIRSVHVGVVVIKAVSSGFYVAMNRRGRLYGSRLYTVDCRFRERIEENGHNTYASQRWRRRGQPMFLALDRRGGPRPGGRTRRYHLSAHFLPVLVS
# RanGTP-Impb inh – inhibitors of RanGTP-importin-beta interaction, primary screen, biochemical, FRET, CFP-Ran, YFP-importin-beta, homogeneous; inhibition, % (no concentration beside the values); actives 1.1% (n = 300,000); AID 2216; cell-free CFP-Ran/YFP-importin-beta FRET ratio;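 active = most replicates above 15%; inconclusive = exactly half above 15%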;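 also: 0% = DMSO wells and 100% = Ran loaded with GDP instead of GTP; wells of about 40 µL received 100 nL stock; the first replicate is given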
# The depositor's hits bear a star; i = inactive; ? = inconclusive; . = no result given; + = active, no number; & = joins results of further samples. Only part of the results is shown; rates above refer to the full screens.
SMILES,MLL AF4-AF9 inh,UCH37 inh,Vif A3G,HNF4A DNA FP,Ecoli growth,FGF22 binding,RanGTP-Impb inh
CC1CN(C(=S)Nc2ccc(Br)cc2Cl)CC(C)O1 (stereo unspecified),-1.8,2.2,.,-0.1,0.649,i,-3.0
CCC(C(=O)Nc1ccc(N2CCOCC2)c(S(=O)(=O)Nc2ccccc2OC)c1)c1ccccc1 (stereo unspecified),-1.3,6.6,4.3%,-2.0,0.697,i,.
COc1ccc(-c2cc(C(=O)Nc3ccc(C)cc3)no2)cc1,.,-19.6,23.2%,-5.9,0.745,.,-3.4
CSc1nc(Cl)cc(Nc2ccc(O)cc2)n1,2.5,4.7,-12.4%,3.7,0.638,i,1.8
O=C(Cn1nnc(-c2ccccc2F)n1)Nc1ccc2c(c1)OCCO2,0.6,2.8,.,0.3,0.669,i,0.8
Cc1cccc(N2CCN(c3ccc(NC(=O)/C=C(/C(=O)O)c4ccccc4)cc3)CC2)c1,.,6.4,?,-1.5,0.724,.,4.3
O=C(Nc1nc2ccccc2[nH]1)c1ccccc1O,-3.4,-100.7,-0.1%,-4.6,0.701,i,0.2
O=C(Nc1ccc(Br)cn1)c1cccc(S(=O)(=O)N2CCCC2)c1,-1.0,0.9,-2.3%,-2.7,0.707,.,.
CC(C)N(Cc1ccccc1)C(=O)COC(=O)c1ccc(O)cc1,6.3,6.7,.,-1.7,0.659,i,.
COc1ccc(Cc2c(O)nc[nH]c2=O)cc1,.,-1.8,30.5%,-0.1,0.717,.,0.4
O=S(=O)(Nc1ccc(N2CCCCC2)cc1)c1cccs1,.,0.0,?,-0.9,0.67,.,3.5
Cc1ccccc1Cn1c2ccccc2c2cnn(CC(=O)NCCCN3CCOCC3)c(=O)c21,0.6,-0.5,.,2.2,0.696,i,-1.4
Cc1ccc(CNS(=O)(=O)NCc2ccccc2)cc1,.,0.6,0.5%,2.5,0.655,.,-0.2
N#Cc1c(N)nc2c3c(sc(=N)c2c1N)NC(=O)CC3c1ccccc1Cl (stereo unspecified),.,-472.3,6.2%,3.2,0.776,.,-2.7
O=C(CCNS(=O)(=O)c1ccc(OC(F)(F)F)cc1)N1CCN(S(=O)(=O)c2cccc(F)c2)CC1,0.3,1.3,0.8%,1.9,0.653,i,5.3
CCN(CC)S(=O)(=O)c1cccc(NC(=O)COC(=O)c2cccs2)c1,2.7,2.2,-14.5%,2.5,0.756,i,2.9
Cc1ccc(C(=O)Nc2sc3c(c2C(=O)O)CCCCC3)o1,.,7.1,0.4%,-2.8,0.683,.,1.3
Nc1c(C(=O)O)cnn1-c1ccc([N+](=O)[O-])cc1,-3.4,2.7,-6.1%,1.1,0.66,i,6.2
CCOc1c(Nc2ccc(C(C)C)cc2)c(=O)c1=O,-5.9,9.1,.,-3.8,0.674,i,0.8
Cc1cc(C)c2cc(C#N)c(N3CCCN(C(=S)NCCCN(C)C)CC3)nc2c1,14.6,-54.0,-31.2%,-1.0,0.686,i,35.0*
Cc1ccc(-n2nnnc2SCC(=O)Nc2sccc2C#N)cc1,.,2.6,9.3%,-1.2,0.623,.,-0.4
CCOC(=O)N1CCN(C(=O)COc2ccc(S(=O)(=O)NC3CCCCC3)cc2C)CC1,.,3.8,-2.2%&-6.5%,2.6,0.774,.,2.3
CCN(CC)S(=O)(=O)c1cc([N+](=O)[O-])ccc1N=Nc1c(O)[nH]c2ccccc12,6.3,6.0,-7.0%,5.3,0.678,i,-13.1
CCc1nc(SCC(=O)O)c(C#N)cc1C,3.7,0.4,6.4%,0.7,0.6,i,2.3
CCOc1ccccc1NC(=O)CSc1nnc(NC(=O)c2ccco2)s1,1.5,2.5,-0.1%,0.3,0.698,i,4.6
COc1ccc(S(=O)(=O)N2CCOCC2)cc1NC(=O)COC(=O)C1CC2CCCC(C1)C2=O (stereo unspecified),-0.2,-0.2,4.8%,-1.7,0.717,i,?
CCC(=NNc1ccc([N+](=O)[O-])cc1[N+](=O)[O-])c1ccccc1,-4.7,.,.,2.1,.,i,.
CCCC12CN(C(=O)c3ccco3)CC(CCC)(CN(C(=O)c3ccco3)C1)C2=O,-0.8,1.3,.,0.9,0.609,i,4.3
Cn1cccc1-c1cc(C(=O)N/N=C/c2ccc(Cl)cc2)[nH]n1,4.2,.,.,1.3,.,i,0.0
Cc1nc(-n2ncc(C#N)c2N)c2c3c(sc2n1)CCC3,.,3.8,0.9%,0.4,0.66,.,?
COc1cc(CCCN2C(=O)C(=O)NC[C@H]2Cc2cccc3ccccc23)cc(OC)c1OC,-2.0,5.3,.,-3.7,.,i,-1.1
Cc1cccc(N2CCN(S(=O)(=O)c3c(C)nc4scc(C)n4c3=O)CC2C)c1 (stereo unspecified),6.7,-5.2,-4.9%,1.9,0.707,i,-1.4
CSc1ncccc1C(=O)N1CCN(S(=O)(=O)c2ccc(C)cc2)CC1,0.7,0.6,.,1.3,0.709,i,3.5
Cc1ccc(-n2nc3c(=O)n(CCCC(=O)NCc4ccco4)nc(C)c3c2C)cc1,-4.1,.,.,3.2,.,i,2.2
COc1ccc(CN2C(=O)c3ccccc3C2=O)cc1C(=O)Nc1ccc(C)cc1C,4.5,0.5,-3.8%,-1.9,0.668,i,4.9
Cc1cccc(NC(=S)Nc2ccc(Br)cc2)c1,.,1.3,-7.9%,-1.4,0.573,.,-0.5
CC(=O)NC(c1ccc(F)c(F)c1)c1nc(-c2ccc(F)c(Cl)c2)cs1 (stereo unspecified),-4.9,.,.,-0.4,.,i,.
COc1ccc(F)cc1S(=O)(=O)NCC(=O)NCc1cc(=O)n(C)c(=O)n1C,-2.2,4.2,.,-0.5,0.665,i,-1.4
O=C(NCCN1CCN(c2ccccc2)CC1)Nc1ccccc1Cl,2.7,1.8,-9.3%,1.1,0.605,i,1.6
C[C@@]12C(=O)N(c3cccc(F)c3)C(=O)N1[C@@H]1c3ccccc3OC[C@@H]1[C@H]2c1ccccc1,-7.7,1.8,.,4.0,.,i,.
CC(=O)Nc1nc(N)n(-c2ccccc2)n1,.,1.2,4.0%,3.2,0.724,.,-0.6
COc1ccc(N/C=C/c2nc(SC)nnc2C)cc1,5.1,6.2,18.3%,44.6*,0.673,i,-5.2
CCC(=O)Nc1ccc(F)c(Cl)c1,.,-0.2,-5.5%,-1.7,0.657,.,-0.9
CCN(CC)C(=O)Oc1ccc(Cl)c2cccnc12,-9.0,-4.9,5.2%,-0.2,0.681,i,4.9
Cc1ccc(C(=O)N/C(=C/c2ccc(F)cc2)C(=O)NCc2ccncc2)cc1,-2.0,5.5,.,1.3,0.699,.,3.9
Cc1ccccc1N(CC(=O)NC(C)(C)C)C(=O)c1ccc(-c2ccccc2)[nH]1,-0.4,-2.9,12.8%,.,0.7,i,0.7
CN(C)c1ccc(-c2nnn(CC(=O)NCc3ccc4c(c3)OCO4)n2)cc1,-1.8,-9.3,5.8%,1.2,0.708,.,4.1
CCCCNc1c(N)n(CC(C)C)c(=O)[nH]c1=O,-4.2,-28.0,0.2%,-5.2,0.641,i,2.2
CCCN1CCC(NCC(C)c2ccccc2)CC1 (stereo unspecified),1.9,4.8,.,0.6,0.697,i,-0.7
O=C(Oc1cc(-c2ccccc2)no1)c1ccc(F)cc1,.,5.3,0.8%,0.1,0.768,.,1.3
Fc1ccc2nc(Nc3nc4c(F)cc(F)cc4s3)sc2c1,0.3,-9.8,?,-4.2,0.711,i,-0.8
CSCC[C@H](NC(=O)c1ccc2c(c1)OCO2)c1nnc2ccccn12,-1.0,0.6,.,-0.2,0.634,i,1.1
COc1ccc(N2CCN(Cc3ccc(Br)s3)CC2)cc1,.,0.2,5.1%,-0.6,0.685,.,-0.5
COc1ccc(-c2ccc(-c3noc(-c4ccccc4)n3)c(OC)n2)cc1,-4.9,-306.5,16.9%,9.7,0.746,i,29.8*
COc1ccccc1C(O)P(=O)(OCC(C)C)c1ccc(N(C)C)cc1 (stereo unspecified),0.9,-2.2,-8.6%,-0.3,0.645,i,-2.8
COc1cccc(C(=O)NCCS(=O)(=O)NCc2cccnc2)c1,-6.5,2.8,-2.2%,7.0,0.655,i,-2.0
O=C(CN1CCC(NC(=O)c2cccc(F)c2)CC1)Nc1ccc(Br)cc1,0.7,3.3,.,0.5,0.636,i,-3.0
CCN1CCN(C(=O)CS(=O)(=O)Cc2nc(-c3ccc(C)cc3)oc2C)CC1,8.3,0.2,4.2%,4.8,0.73,i,3.0
CCOC(=O)C1=C(C)N=C2SCCC(=O)N2C1c1ccc(C(=O)OC)cc1 (stereo unspecified),.,4.7,?,0.5,0.68,.,-1.7
COc1ccc(C(=O)c2nccc3ccccc23)cc1,0.9,5.2,.,1.6,0.684,i,3.1

# Next section
SMILES,MLL AF4-AF9 inh,UCH37 inh,Vif A3G,HNF4A DNA FP,Ecoli growth,FGF22 binding,RanGTP-Impb inh
COCCn1c(SCC(=O)OCc2ccccc2)nc2c1c(=O)[nH]c(=O)n2C,-5.3,0.5,.,-4.0,0.757,i,7.2
C/C(=N\Nc1cccc2cccnc12)c1ccccc1O,0.3,.,1.6%,1.7,.,i,-1.3
COc1ccccc1N1CCN(C(=O)c2oc3cc(C)cc(C)c3c2C)CC1,.,4.3,2.4%,2.3,0.732,.,?
COc1ccc(C(=O)N2CCCC(c3ccccc3)=N2)cc1,1.1,1.7,-1.8%,0.2,0.729,i,?
COc1cc(CN(C)CC2CCCN(CCc3cccc(C(F)(F)F)c3)C2)ccc1O (stereo unspecified),12.7,1.8,.,0.7,0.625,i,-0.1
CCc1cc(C(=O)NN2C(=O)NC3(CCCCC3)C2=O)sc1C,-2.4,0.5,-3.8%,-0.8,0.667,i,.
CN=C1NN=C(c2cc(C)n(-c3c(C)n(C)n(-c4ccccc4)c3=O)c2C)CS1,-0.6,6.9,.,-0.2,0.699,+,0.2
CS(=O)(=O)c1ccc(-c2cccc(NC(=O)c3ccc4c(c3)OCO4)c2)nn1,-2.3,.,8.8%,0.7,.,i,.
Cc1cc(C)c(CN2CCC(n3nccc3NC(=O)C3CCCC3)CC2)cc1C,1.1,7.4,.,6.7,0.667,i,4.6
O=C(NNS(=O)(=O)c1ccccc1)c1cccs1,.,-5.8,2.2%,2.3,0.696,.,3.0
Cc1nc2c(N)nn(C)c2nc1C,6.5,.,11.9%,0.4,.,i,.
CCCCOC(=S)NC(=O)c1sc2ccccc2c1Cl,.,.,17.6%,-2.4,.,.,29.4*
Cc1ccc(CN(CCO)CCO)cc1,0.1,-0.3,?,-2.1,0.724,.,3.8
CCCN1C2CCCC1CC(NC(=O)C1CCCCC1)C2 (stereo unspecified),.,3.8,-8.2%,1.4,0.679,.,-4.1
CCCCNC(=O)CCn1c(=O)c2ccccc2n(CC(=O)N2CC(C)CC(C)C2)c1=O (stereo unspecified),.,2.9,-1.8%,3.2,0.791,.,1.7
CC(Oc1ccccc1)C(=O)N1CCCc2ccccc21 (stereo unspecified),.,3.8,?,0.2,0.751,.,.
Cc1cc(OCC(=O)N2CCOCC2)cc2oc(=O)c3ccccc3c12,.,-368.4,10.3%,-0.1,0.744,.,-4.0
O=S(=O)(Nc1ncccn1)c1ccc(NS(=O)(=O)c2cccc(Cl)c2Cl)cc1,-2.8,1.9,13.7%,0.0,0.675,i,1.6
